# PINK1 expr mod = PINK1 expression modulation; PINK1 immunofluorescence, high-content cytometry, 24 h; Potency, µM (highest dose often 76.6 µM), for the others: at the highest dose activation (PINK1 increase), hits mostly activators; hit rate 0.2% among 410,000; active = well fitted activation curve with a large enough effect; inconclusive = small, poorly fitted or top-dose-only effect; inactive = flat fitted curve, though single readings scatter; cell line not stated here;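 note: potency is the fitted concentration of half-maximal effect; % of control where 0% means no effect; nearly all actives have a fitted effect of over 65% in size; a mitochondrial uncoupler was the plate control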
#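 Stable cell line treated 24 h with compounds at 5 concentrations (CCCP controls), then fixed and immunostained for PINK1 plus nuclear and cell stains; PINK1 immunofluorescence quantified by laser-scanning microplate cytometry.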
# TRPML1 blocker = inhibitors of human TRPML1 channel. TRPML1-inducible cells, Ca2+ dye fluorescence, FDSS; hits give low values; inhibition of EC80 agonist-evoked calcium signal. hit rate 0.02% among 390,000. AID 624415. activity change, negative = inhibition, % (concentration not given with the values); in the data active means activity change below about -50%; inconclusive means about -30% to -50%; inactive means above about -30%;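 note: stimulus is agonist 54-4 at its EC80 concentration; % is set by controls: 0 for no effect and ±100 for the full control effect; compound concentration not given in the record; the text of the record puts the active cut at -80%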
# Target sequence (Q9GZU1 whole entry, looked up): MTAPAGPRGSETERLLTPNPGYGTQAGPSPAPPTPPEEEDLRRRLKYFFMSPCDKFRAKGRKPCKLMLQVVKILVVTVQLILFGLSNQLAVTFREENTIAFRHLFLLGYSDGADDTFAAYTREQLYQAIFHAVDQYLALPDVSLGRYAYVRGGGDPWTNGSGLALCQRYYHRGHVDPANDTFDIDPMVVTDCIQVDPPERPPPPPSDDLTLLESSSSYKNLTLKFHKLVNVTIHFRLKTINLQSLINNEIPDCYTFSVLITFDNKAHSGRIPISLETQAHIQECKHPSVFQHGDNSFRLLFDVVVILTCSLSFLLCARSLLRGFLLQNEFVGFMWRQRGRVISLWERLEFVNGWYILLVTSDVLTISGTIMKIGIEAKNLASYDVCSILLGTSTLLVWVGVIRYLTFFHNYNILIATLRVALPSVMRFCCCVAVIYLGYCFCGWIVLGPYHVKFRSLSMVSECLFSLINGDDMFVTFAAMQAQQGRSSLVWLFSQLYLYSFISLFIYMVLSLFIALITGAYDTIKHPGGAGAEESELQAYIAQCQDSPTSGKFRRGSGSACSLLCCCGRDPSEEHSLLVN
#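 TRPML1-DL cells, Tet-induced overnight (~16 h, 37 °C) at 1,500 cells/well, were loaded with Ca8 no-wash dye plus quencher for 45-90 min at room temperature. Compounds were pinned during FDSS kinetic reading; agonist 54-4 at EC80 (4 uM final) then added.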
# D2 agonist = activates the human D2 dopamine receptor | hit rate 0.084% among 360,000 | P14416 | activation, % (test concentration not listed) | AID 624465 | DiscoveRx PathHunter D2 beta-arrestin, luminescence, 90 min; 100% = 57 uM dopamine signal; in the data active = activation above about 40%; inconclusive = about 15% to 40%; inactive = below about 15%; note: compound concentration not given in the record; the text of the record calls up to 30% inactive
# Target sequence (P14416 whole entry, looked up): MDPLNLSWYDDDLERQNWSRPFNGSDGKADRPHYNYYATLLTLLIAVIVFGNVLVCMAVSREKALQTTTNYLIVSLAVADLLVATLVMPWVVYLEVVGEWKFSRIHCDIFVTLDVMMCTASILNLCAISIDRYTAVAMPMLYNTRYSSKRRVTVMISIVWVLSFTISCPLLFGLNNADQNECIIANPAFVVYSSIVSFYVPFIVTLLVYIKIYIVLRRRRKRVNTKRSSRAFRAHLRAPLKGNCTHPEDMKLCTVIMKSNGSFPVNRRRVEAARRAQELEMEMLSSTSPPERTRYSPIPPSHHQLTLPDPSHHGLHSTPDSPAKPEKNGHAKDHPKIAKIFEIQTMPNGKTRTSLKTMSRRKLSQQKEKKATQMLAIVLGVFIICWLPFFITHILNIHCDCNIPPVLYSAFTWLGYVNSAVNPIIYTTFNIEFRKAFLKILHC
#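 DiscoveRx PathHunter D2 beta-arrestin cells (2,100/well) attached overnight, then compound-stimulated 90 min at 37 C in HBSS/10 mM HEPES/0.1% Tween-20 buffer; beta-galactosidase complementation read by luminescence after 1 h at ambient temperature. Dopamine 57 uM final (EC100) as control.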
# TRPML1 agonist = activates the human TRPML1 channel; Q9GZU1; TRPML1-expressing cells, Ca2+ dye fluorescence, FDSS; host cell line not named in the record; reference of the full effect not given here; activation, % (no concentration beside the values); hit rate 0.12% among 410,000; in the data active = activation above about 50%; inconclusive = about 30% to 50%; inactive = below about 30%; note: 0% is about no effect; the text of the record puts the active cut at 80%
#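 Tet-induced TRPML1-DL cells, 1,500 per well, cultured overnight, were loaded with a no-wash Ca2+ dye for 45–90 min. Calcium fluorescence was recorded on the FDSS for 110 s after compound addition, before the EC80 agonist (4 uM 54-4) was added.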
# * marks the source's active call; other numbers are inactive results; u = inconclusive; x = not tested or not shown. The list is partial; the hit share may differ from the screen's.
[1] CC(N)[C@@H](O)c1ccccc1 (stereo partly specified)
[2] CN1CCN(c2ncc3ncc(=O)n(C)c3n2)CC1
[3] O=C(c1ccco1)N1CCC2(CC1)CN(Cc1ccncc1)C2
[4] O=C(O)COc1cc(Cl)c(Cl)cc1Cl
[5] CS(=O)(=O)N1CCC2(CC1)CN(Cc1ccncc1)C2

Assay by compound | 1 | 2 | 3 | 4 | 5
D2 agonist | x | x | x | x | x
TRPML1 agonist | x | x | x | x | x
TRPML1 blocker | x | x | x | x | x
PINK1 expr mod | 0.0% | -0.5% | -0.8% | -0.5% | -1.0%

[6] CNC(=O)Oc1cccc2c1OC(C)(C)C2
[7] C=C(C)c1cc2cc(C(C)=O)c(O)cc2o1
[8] CNc1ccccc1C(=O)O
[9] O=C(Oc1ccccc1)N1CCC2(CCCN(C(c3ccccc3)c3ccccc3)C2)CC1
[10] Fc1ccc(C(OCCN2CCN(CCCc3ccccc3)CC2)c2ccc(F)cc2)cc1

Assay by compound | 6 | 7 | 8 | 9 | 10
D2 agonist | x | x | x | x | x
TRPML1 agonist | x | x | x | x | x
TRPML1 blocker | x | x | x | x | x
PINK1 expr mod | -0.3% | -0.5% | 0.3% | 2.9% | 1.7%

[11] CC(=O)N(C)CC#CCN1CCC(O)CC1
[12] O=C(c1ccco1)N1CCC[C@@]2(CCN(Cc3ccncc3)C2)C1
[13] c1csc(CN2CC[C@@]3(CCCNC3)C2)n1
[14] CC(C)CN1CC2(CCN(C(=O)Oc3ccccc3)CC2)C1
[15] C=C(C)C1Cc2c(ccc3c(=O)c4c(oc23)COc2cc(OC)c(OC)cc2-4)O1 (stereo unspecified)

Assay by compound | 11 | 12 | 13 | 14 | 15
D2 agonist | x | x | x | x | x
TRPML1 agonist | x | x | x | x | x
TRPML1 blocker | x | x | x | x | x
PINK1 expr mod | 0.9% | -0.6% | 0.4% | -0.9% | 0.4%

[16] COCC(=O)N1CCC2(CCCN(Cc3ccncc3)C2)CC1
[17] COP(=S)(OC)Oc1ccc([N+](=O)[O-])cc1
[18] CCCC(C)C1(CC)C(=O)N=C(S)NC1=O (stereo unspecified)
[19] COc1ccc(NC(=O)N2CC3(CCN(C(=O)Oc4ccccc4)CC3)C2)cc1
[20] COC(=O)[C@]1(C)CC[C@@]2(C)CC[C@@]3(C)C4=CCc5c(cc(O)c(O)c5C)[C@]4(C)CC[C@@]3(C)C2C1 (stereo partly specified)

Assay by compound | 16 | 17 | 18 | 19 | 20
D2 agonist | x | x | x | x | x
TRPML1 agonist | x | x | x | x | x
TRPML1 blocker | x | x | x | x | x
PINK1 expr mod | 0.8% | -1.3% | 1.9% | -0.5% | u

[21] CN1CC[C@@]2(CCCN(C(=O)c3csnn3)C2)C1
[22] O=C(O)c1nn(Cc2ccc(Cl)c(Cl)c2)c2ccccc12
[23] O=C(NC(=O)c1c(F)cccc1F)Nc1ccc(Cl)cc1
[24] CCCCCCCCCc1ccc(O)cc1
[25] COP(N)(=O)SC (stereo unspecified)

Assay by compound | 21 | 22 | 23 | 24 | 25
D2 agonist | x | x | x | x | x
TRPML1 agonist | x | x | x | x | x
TRPML1 blocker | x | x | x | x | x
PINK1 expr mod | 0.3% | -1.2% | 1.7% | -0.6% | -0.6%

[26] Cc1ccccc1-c1cncnc1NCCc1cnc[nH]1
[27] CC(=O)Oc1c2c(c(CC=C(C)C)c3c1C(=O)C1=CC4CC5C(C)(C)OC(C/C=C(\C)C(=O)O)(C4=O)[C@]15O3)OC(C)(CCC=C(C)C)C=C2 (stereo partly specified)
[28] C#CCOS(=O)OC1CCCCC1Oc1ccc(C(C)(C)C)cc1 (stereo unspecified)
[29] Cc1c(P(=S)(c2ccccc2)c2ccccc2)[n+]2ccccc2n1CCc1ccccc1
[30] O=C(Nc1ccccc1)N1CCC2(CC1)CCN(C(=O)Oc1ccccc1)CC2

Assay by compound | 26 | 27 | 28 | 29 | 30
D2 agonist | x | x | x | x | x
TRPML1 agonist | x | x | x | x | x
TRPML1 blocker | x | x | x | x | x
PINK1 expr mod | 0.4% | -2.3% | -1.3% | 25µM* | 2.1%

[31] O=C(Nc1ccccc1)N1CC[C@@]2(CCCNC2)C1
[32] CC(C)(C#N)O[C@H]1OC(CO)C(O)C(O)C1O (stereo partly specified)
[33] O=C(Oc1ccccc1)N1CCC2(CCN(Cc3nccs3)CC2)CC1
[34] Oc1ccc(C2=CCNCC2)cc1O
[35] COc1cc(=O)n2c(c1C(=O)N(C)Cc1nonc1C)CCN(C(=O)C1C(C)(C)C1(C)C)CC2

Assay by compound | 31 | 32 | 33 | 34 | 35
D2 agonist | x | x | x | x | x
TRPML1 agonist | x | x | x | x | x
TRPML1 blocker | x | x | x | x | x
PINK1 expr mod | -1.0% | 0.1% | -0.3% | -0.5% | 0.0%

[36] Cc1nc2cnc(N3CCNCC3)nc2n(C)c1=O
[37] CNC(=O)O/N=C/C(C)(C)SC
[38] COc1ccc(NC(=O)N2CCCC3(CCN(C(=O)Oc4ccccc4)CC3)C2)cc1
[39] CC1CC(O)[C@]2(O)[C@]13CC(=O)OC[C@@]2(C)[C@@](C)(O)C(=O)C3 (stereo partly specified)
[40] O=C(Oc1ccccc1)N1CCC[C@@]2(CCN(Cc3ccccc3)C2)C1

Assay by compound | 36 | 37 | 38 | 39 | 40
D2 agonist | x | x | x | x | x
TRPML1 agonist | x | x | x | x | x
TRPML1 blocker | x | x | x | x | x
PINK1 expr mod | -0.5% | 0.3% | -1.0% | -0.2% | 2.4%

# Exported with values under each structure: part of the list above
# Results follow in this order: D2 agonist | TRPML1 agonist | TRPML1 blocker | PINK1 expr mod
16	COCC(=O)N1CCC2(CCCN(Cc3ccncc3)C2)CC1
  x | x | x | 0.8%
17	COP(=S)(OC)Oc1ccc([N+](=O)[O-])cc1
  x | x | x | -1.3%
18	CCCC(C)C1(CC)C(=O)N=C(S)NC1=O (stereo unspecified)
  x | x | x | 1.9%
19	COc1ccc(NC(=O)N2CC3(CCN(C(=O)Oc4ccccc4)CC3)C2)cc1
  x | x | x | -0.5%
20	COC(=O)[C@]1(C)CC[C@@]2(C)CC[C@@]3(C)C4=CCc5c(cc(O)c(O)c5C)[C@]4(C)CC[C@@]3(C)C2C1 (stereo partly specified)
  x | x | x | u
21	CN1CC[C@@]2(CCCN(C(=O)c3csnn3)C2)C1
  x | x | x | 0.3%
22	O=C(O)c1nn(Cc2ccc(Cl)c(Cl)c2)c2ccccc12
  x | x | x | -1.2%
23	O=C(NC(=O)c1c(F)cccc1F)Nc1ccc(Cl)cc1
  x | x | x | 1.7%
24	CCCCCCCCCc1ccc(O)cc1
  x | x | x | -0.6%
25	COP(N)(=O)SC (stereo unspecified)
  x | x | x | -0.6%
26	Cc1ccccc1-c1cncnc1NCCc1cnc[nH]1
  x | x | x | 0.4%
27	CC(=O)Oc1c2c(c(CC=C(C)C)c3c1C(=O)C1=CC4CC5C(C)(C)OC(C/C=C(\C)C(=O)O)(C4=O)[C@]15O3)OC(C)(CCC=C(C)C)C=C2 (stereo partly specified)
  x | x | x | -2.3%
28	C#CCOS(=O)OC1CCCCC1Oc1ccc(C(C)(C)C)cc1 (stereo unspecified)
  x | x | x | -1.3%
29	Cc1c(P(=S)(c2ccccc2)c2ccccc2)[n+]2ccccc2n1CCc1ccccc1
  x | x | x | 25µM*
30	O=C(Nc1ccccc1)N1CCC2(CC1)CCN(C(=O)Oc1ccccc1)CC2
  x | x | x | 2.1%
31	O=C(Nc1ccccc1)N1CC[C@@]2(CCCNC2)C1
  x | x | x | -1.0%
32	CC(C)(C#N)O[C@H]1OC(CO)C(O)C(O)C1O (stereo partly specified)
  x | x | x | 0.1%
33	O=C(Oc1ccccc1)N1CCC2(CCN(Cc3nccs3)CC2)CC1
  x | x | x | -0.3%
34	Oc1ccc(C2=CCNCC2)cc1O
  x | x | x | -0.5%

# The list continues:
[41] CCN1C[C@@]2(OC(=O)c3ccccc3NC(C)=O)CCC(OC)[C@@]34C5CC6C(OC)C[C@@](O)(C(CC23)[C@@H]14)C5(O)C6OC (stereo partly specified)
[42] c1ccc(N2CC[C@@]3(CCCNC3)C2)cc1
[43] O=Cc1ccccc1
[44] O=C(CN1CCCC1)c1ccccc1
[45] O=C(CN1CCCC2CCCCC21)c1ccc(I)cc1 (stereo unspecified)

Assay by compound | 41 | 42 | 43 | 44 | 45
D2 agonist | x | x | x | x | x
TRPML1 agonist | x | x | -0.7 | 0.2 | -0.5
TRPML1 blocker | x | x | x | x | x
PINK1 expr mod | 0.7% | 0.0% | x | x | x

[46] O=c1c2ccccc2nc(/C=C/c2ccccc2O)n1-c1ccccc1O
[47] Nc1ncnc2c1ncn2[C@@H]1O[C@@H]2COP(O)(=S)O[C@H]2[C@H]1O (stereo partly specified)
[48] NC(Cc1cc(O)c(O)cc1O)C(=O)O (stereo unspecified)
[49] C[C@H]1CCCC=CC2C[C@H](O)C[C@@H]2[C@H](O)C=CC(=O)O1 (stereo partly specified)
[50] COc1cc([C@@H]2c3cc4c(cc3[C@H](OC(C)=O)[C@H]3COC(=O)[C@@H]23)OCO4)cc(OC)c1OC

Assay by compound | 46 | 47 | 48 | 49 | 50
D2 agonist | -1.5 | x | x | x | x
TRPML1 agonist | x | -0.8 | -0.7 | -0.2 | -0.7
TRPML1 blocker | x | x | x | x | x
PINK1 expr mod | x | 0.4% | -0.2% | -1.0% | 4.3%

[51] COc1cc([C@@H]2c3cc4c(cc3[C@@H](O)C3COC(=O)C32)OCO4)cc(OC)c1O (stereo partly specified)
[52] COc1cc([C@@H]2c3cc4c(c(O)c3C[C@H]3COC(=O)[C@@H]32)OCO4)cc(OC)c1OC
[53] Cc1cc2c(C(C)C)c(O)c(O)c(C=O)c2c(O)c1-c1c(C)cc2c(C(C)C)c(O)c(O)c(C=O)c2c1O
[54] CN(C)c1ccc(N=Nc2ccccc2)cc1
[55] C[C@H]1O[C@@H](O[C@H]2[C@@H](O)C[C@@H](O[C@H]3[C@@H](O)C[C@H](O[C@H]4CC[C@@]5(C)[C@H](CC[C@@H]6[C@@H]5CC[C@]5(C)[C@@H](C7=CC(=O)OC7)CC[C@]65O)C4)O[C@@H]3C)O[C@@H]2C)C[C@H](O)[C@@H]1O

Assay by compound | 51 | 52 | 53 | 54 | 55
D2 agonist | x | x | x | x | x
TRPML1 agonist | -0.7 | -0.7 | u | -0.8 | -0.1
TRPML1 blocker | x | x | x | x | x
PINK1 expr mod | 1.3% | 6.7% | u | 0.5% | -1.2%

# Exported with values under each structure: part of the list above
# The line under a structure holds: D2 agonist	TRPML1 agonist	TRPML1 blocker	PINK1 expr mod
[55] C[C@H]1O[C@@H](O[C@H]2[C@@H](O)C[C@@H](O[C@H]3[C@@H](O)C[C@H](O[C@H]4CC[C@@]5(C)[C@H](CC[C@@H]6[C@@H]5CC[C@]5(C)[C@@H](C7=CC(=O)OC7)CC[C@]65O)C4)O[C@@H]3C)O[C@@H]2C)C[C@H](O)[C@@H]1O
  x	-0.1	x	-1.2%
[51] COc1cc([C@@H]2c3cc4c(cc3[C@@H](O)C3COC(=O)C32)OCO4)cc(OC)c1O (stereo partly specified)
  x	-0.7	x	1.3%

# Next structures follow.
[56] CC(=O)NCC(N)C(=O)c1ccc(C)cc1 (stereo unspecified)
[57] O=P1(Oc2ccccc2)CC(O)C(O)C(COCc2ccccc2)O1 (stereo unspecified)
[58] CO[C@H]1[C@@H](O)[C@@H](C)O[C@H](O[C@H]2[C@H](Oc3cccc4c(O)c5c(=O)oc6ccc(C)c7c(=O)oc(c34)c5c67)O[C@H](C)[C@H](O)[C@@H]2O)[C@@H]1O
[59] CN1C[C@@H](CO)C=C2c3cccc4[nH]cc(c34)CC21 (stereo partly specified)
[60] C[C@H]1CC[C@@H]2[C@@H](C)[C@H]3C(CC4C5CC=C6CC(O[C@@H]7O[C@H](CO)C(O[C@@H]8O[C@@H](C)[C@H](O)[C@@H](O)[C@H]8O)[C@H](O)[C@H]7O[C@@H]7O[C@@H](C)[C@H](O)[C@@H](O)[C@H]7O)CC[C@]6(C)C5CC[C@@]43C)N2C1 (stereo partly specified)

Assay by compound | 56 | 57 | 58 | 59 | 60
D2 agonist | x | x | x | x | x
TRPML1 agonist | -0.2 | 0.4 | 0.6 | 0.1 | 6.7
TRPML1 blocker | x | 12 | 10 | 10 | -8
PINK1 expr mod | -0.1% | x | x | x | x
